Arbovirus inh: antivirals against arbovirus infection, primary screen, cell-based, full library, 10K replicate subset. AID 1251, 2008. arbovirus infection cell-based antiviral screen. 200,000 tested, 0.37% active. inhibition, % at 10 µM;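 active = inhibition from about 30%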;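 also: bluetongue infection of BSR cells; cell survival read as ATP light after 72 h; 0% = infected wells without compound and 100% = uninfected wells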
RecA intein inh: Mtb RecA intein splicing inhibitors, primary screen, biochemical, fluorescence, HTS; AID 2221, 2009; cell-free RecA intein splicing; inhibition, %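 (about 9 µM by stock and volumes)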; 290,000 tested, 0.75% active; Protein RecA (Mycobacterium tuberculosis (strain ATCC 25618 / H37Rv)), P9WHJ3; in the data active = inhibition above about 30%; inconclusive = no clear call, values can overlap the other calls;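 also: 0% = vehicle wells and 100% = reference inhibitor control wells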
Target sequence (P9WHJ3 whole entry, looked up): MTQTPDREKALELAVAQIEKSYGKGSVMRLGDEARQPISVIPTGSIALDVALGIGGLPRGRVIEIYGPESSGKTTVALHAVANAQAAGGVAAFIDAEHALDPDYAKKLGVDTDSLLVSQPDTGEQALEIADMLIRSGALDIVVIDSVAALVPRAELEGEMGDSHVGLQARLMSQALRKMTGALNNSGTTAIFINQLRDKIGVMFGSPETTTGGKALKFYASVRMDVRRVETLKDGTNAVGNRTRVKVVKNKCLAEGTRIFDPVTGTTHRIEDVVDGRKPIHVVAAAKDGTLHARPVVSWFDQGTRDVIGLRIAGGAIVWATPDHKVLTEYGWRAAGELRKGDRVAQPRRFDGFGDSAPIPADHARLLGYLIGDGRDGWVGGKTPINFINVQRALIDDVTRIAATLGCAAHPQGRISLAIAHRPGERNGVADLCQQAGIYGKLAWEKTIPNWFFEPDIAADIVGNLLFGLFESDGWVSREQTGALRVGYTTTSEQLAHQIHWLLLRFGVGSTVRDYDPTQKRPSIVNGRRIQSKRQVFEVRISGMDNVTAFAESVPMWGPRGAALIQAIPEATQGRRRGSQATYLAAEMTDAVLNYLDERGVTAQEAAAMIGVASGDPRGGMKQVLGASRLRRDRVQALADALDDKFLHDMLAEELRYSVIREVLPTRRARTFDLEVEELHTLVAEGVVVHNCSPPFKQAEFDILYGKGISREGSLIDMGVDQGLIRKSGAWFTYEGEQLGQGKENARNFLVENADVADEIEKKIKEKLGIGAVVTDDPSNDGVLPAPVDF
Mtb betalactam: beta-lactam sensitization of Mtb H37Rv, H37Rv | AID 434955, 2010 | inhibition, % at 25 µM | M. tuberculosis H37Rv growth with meropenem, percent inhibition; hits of this screen are not shown here | 330,000 tested, 0.27% active;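 active = about 74% or more and at least 40 points above the plate without the antibiotic, then above 30% in a dose series; inconclusive = first-round hits that could not be retested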;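 also: growth measured after seven days incubation then overnight dye step; 0% = bacteria only wells and 100% = bacteria with antibiotic; twin plates without the antibiotic show which effects depend on it; some results filed as inactive read as strong as hits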
YopH inh: YopH tyrosine phosphatase inhibitors, primary screen, biochemical, fluorescence Ex485/Em525. YopH tyrosine phosphatase [Yersinia enterocolitica]. inhibition, %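 (about 10 µM by stock and volumes)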. 140,000 tested, 0.16% active. AID 898, 2007;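 active = inhibition of 50% or more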;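 also: controls were vehicle for no effect and minimum signal wells for full effect; inactives centre near -20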
Mtb growth: M. tuberculosis H37Rv growth inhibitors, H37Rv strain (AID 1626) | M. tuberculosis H37Rv growth inhibition; higher % means a stronger effect | one-dose inhibition, % at 10 µM; IC50 in µM for titrated hits | 220,000 tested, 0.95% active;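 active = confirmed in a dose series; inconclusive = inhibition above 80% but not taken into the dose series; inactive = below 80% or under 30% at every dose of the series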;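 also: bacteria incubated seven days before Alamar blue readout; 0% = bacteria only wells and 100% = bacteria with antibiotic wells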
Arbovirus inh repeat: second read-out of Arbovirus inh, no call of its own (marks repeat the call); inhibition, %; measured here: 10K subset replicate screen; many hits read low in the repeat;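 first of two repeat runs on a subset; 0% = infected and 100% = uninfected wells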
Starred values were filed as active, the others as inactive; ? = inconclusive; nt = not tested or not shown.

SMILES	Arbovirus inh	RecA intein inh	Mtb betalactam	YopH inh	Mtb growth	others
CN1CCN(S(=O)(=O)c2ccc(NC(=O)c3ccc([N+](=O)[O-])cc3)cc2)CC1	nt	0.8	0.8	nt	nt
CC(CCc1ccccc1)NC(=S)NC(=O)c1ccco1 (centres undefined)	6.8	8.2	2.1	nt	3.8%
Cc1cccc(/C=N/NC(=O)c2ccc(NC(=O)c3ccc(F)cc3)cc2)n1	nt	-2.8	60.6	nt	nt
COc1ccc(CCNC(=O)c2c(C)nc3ccccn23)cc1	20.6	1.9	37.7	nt	?
COC(=O)NC1CCC(NC(=O)OC)CC1 (centres undefined)	4.3	-0.1	-5.6	-0.9	0.7%
COc1ccc(-n2nc3c(c2NC(=O)C(C)Oc2ccccc2)CS(=O)C3)cc1 (centres undefined)	nt	2.7	3.8	nt	nt
Cc1cc(C)c(C)c(S(=O)(=O)N2CCC(C(=O)Nc3ccncc3)CC2)c1C	nt	3.4	54.3	nt	nt
Clc1cccc(C2NCCc3[nH]cnc32)c1 (centres undefined)	1.7	0.4	-5.6	-36.4	-1.9%
Cc1cccc(NC(=O)CSc2nnc(-c3ccncc3)n2CC2CCCO2)c1 (centres undefined)	nt	-1.6	2.5	nt	nt
O=S(=O)(Cc1ccccc1)NCC1CCCO1 (centres undefined)	0.4	2.2	-7.4	-33.1	-1.8%
Cc1ccc(S(=O)(=O)NC2=C(N3CCN(Cc4ccccc4)CC3)C(=O)c3ccccc3C2=O)cc1	-13.4	13.0	9.9	3.3	nt
CCC(NS(=O)(=O)c1ccc2c(c1)Cc1cc(S(=O)(=O)NC(CC)C(=O)O)ccc1-2)C(=O)O (centres undefined)	nt	1.7	-31.3	nt	nt
O=C(COc1ccc(F)cc1)N/N=C/c1cccc2cccnc12	nt	6.4	84.7	nt	nt
O=C(CN1C(=O)COc2ccc(Cl)cc21)Nc1ccccn1	nt	-0.1	-2.1	nt	nt
Cc1cc(OCC(=O)NCCc2ccc(S(N)(=O)=O)cc2)c2c(C)c(C)c(=O)oc2c1	nt	0.5	1.6	nt	nt
NS(=O)(=O)c1ccc(CCNS(=O)(=O)c2ccc3c(c2)NC(=O)CO3)cc1	nt	0.2	-3.0	nt	nt
CSCC(=O)N1CCCC(CNC(=O)c2ccc(-c3ccccc3)cc2)C1 (centres undefined)	-2.3	1.7	8.3	nt	-1.6%
O=C(CNC(=O)c1ccc(Cl)c([N+](=O)[O-])c1)NCC1CCCO1 (centres undefined)	nt	-3.3	-0.7	nt	nt
CCN(CC)C(=O)Cn1nc(C)c2ccccc2c1=O	2.1	-8.0	-11.6	0.9	-7.5%
CCc1nnc(NS(=O)(=O)c2ccc(NC(=S)Nc3ccc(F)cc3)cc2)s1	-2.4	-0.7	4.5	-36.7	12.6%
Cn1c(=O)cc(SCC(=O)NCCCN2CCN(c3ccccc3F)CC2)c2ccccc21	-4.1	-0.9	-6.0	-9.2	-9.2%
CCOC(=O)CCCCC(=O)c1[nH]c(=O)[nH]c1CSCCO	1.5	1.3	4.0	1.4	-2.0%
COc1cccc(CC(=O)Nc2cc(C(F)(F)F)ccc2N2CCCC2)c1	nt	0.9	?	nt	nt
CC(C)N1CCN(Cc2cccc3nonc23)CC1CCO (centres undefined)	3.1	0.3	-3.9	nt	-3.5%
Cc1cc2oc(C(=O)Nc3nonc3C)c(C)c2cc1Cl	nt	3.1	15.7	nt	nt
Carrying on:
SMILES	Arbovirus inh	RecA intein inh	Mtb betalactam	YopH inh	Mtb growth	others
CC(=O)/C(=N\Nc1ccc(Cl)cc1Cl)Sc1cccc2cccnc12	-31.4	-5.2	86.1	-21.2	74.4%
CCN(CC(=O)NCC(=O)Nc1cccc(C)c1C)Cc1ccccc1	nt	-2.7	-3.8	nt	nt
O=C(CCC1CCCN(C(=O)c2cc3ccccc3o2)C1)NCc1ccc(F)c(F)c1 (centres undefined)	nt	2.9	1.0	nt	nt
C/C(=N\NC(=O)C1CC1c1ccccc1)c1cccs1 (centres undefined)	12.3	-0.4	-3.3	-55.5	-2.5%
O=C(OC1CCOC1=O)c1ccc(S(=O)(=O)N2CCCCCC2)cc1 (centres undefined)	0.7	-0.2	-2.9	-16.5	-8.4%
CCCCNC(=O)c1ccccc1NC(=O)CCSc1ccccc1	6.0	6.4	-3.3	-36.8	-0.9%
COc1ccccc1CNC(=O)C1CCCN(S(=O)(=O)c2cccc3nonc23)C1 (centres undefined)	nt	0.4	-2.4	nt	nt
O=C(c1ccc2c3c(cccc13)CC2)C1CCCN(Cc2ccccn2)C1 (centres undefined)	11.6	2.4	83.5	nt	10µM*
CCOc1cc(CNCCc2c[nH]c3ccccc23)cc(Cl)c1OCC	-30.9	5.2	20.4	-22.4	24.2%
COc1ccc(C)cc1NC(=O)C1CCCN1C(=O)OCc1ccccc1 (centres undefined)	-8.8	1.9	4.0	-16.0	-4.8%
Cc1cc(=O)[nH]c(N/N=C/c2c(C)nn(-c3ccc(F)cc3)c2Cl)n1	-1.2	0.5	-12.0	nt	-4.3%
CN(C)c1ncnc2c1NC1=C(S2)C(=NCCCC(=O)O)CC(C)(C)C1	6.2	-7.6	12.6	-17.1	4.5%
Cc1ccc(-c2nc(C(F)(F)F)cc(=O)[nH]2)cc1	nt	0.2	-4.5	nt	-0.9%
Cc1nc2cc(N)ccc2n1-c1ccccc1	2.2	0.2	3.0	nt	0.1%
CC(=O)NCCCNc1ccc([N+](=O)[O-])cc1	4.2	1.6	-0.4	-12.0	-2.6%
COc1ccc(C(=O)O/N=C2\CCCc3nonc32)cc1	1.2	-0.9	3.5	-18.8	4.5%
Cc1ccc(CCNC(=O)C2CCC(=O)N(Cc3ccccc3F)C2)o1 (centres undefined)	nt	-1.1	-16.1	nt	nt
Cc1nn(CC(=O)Nc2ccc3c(c2)OCO3)c(C)c1Cl	nt	0.7	2.4	nt	nt
CCN(CC)CCn1c2c(c(SCC(=O)Nc3ccc4c(c3)OCCO4)nc1=O)CCCC2	nt	1.0	-9.4	nt	nt
Cc1nc(N2CCOCC2)nc(N2CCCCC2C)c1[N+](=O)[O-] (centres undefined)	nt	2.2	-2.0	nt	7.5%
Cc1[nH]c(C)c(S(=O)(=O)N2CCN(c3cccc(C(F)(F)F)c3)CC2)c1C(=O)N1CCCC1	nt	0.9	9.8	nt	nt
CCOC(=O)N1CCN(C(=O)CN(C2CCCCC2)S(=O)(=O)c2c(C)cc(C)cc2C)CC1	-18.4	-1.3	1.6	-16.3	4.8%
O=C(NCCCl)C1Cc2c(ccc3ccccc23)O1 (centres undefined)	2.7	2.8	10.7	nt	-1.6%
CCOc1ccc(N2C(=O)CC(NNc3nc4ccccc4s3)C2=O)cc1 (centres undefined)	nt	0.9	9.0	nt	-3.4%
CCOC(=O)C1=C(C)S/C(=C\N(C)C)C1=O	4.6	-1.1	-2.0	-11.8	-3.9%	Arbovirus inh repeat=4.3

Of the compounds above, these contain a COOH group:
SMILES	Arbovirus inh	RecA intein inh	Mtb betalactam	YopH inh	Mtb growth	others
CCC(NS(=O)(=O)c1ccc2c(c1)Cc1cc(S(=O)(=O)NC(CC)C(=O)O)ccc1-2)C(=O)O (centres undefined)	nt	1.7	-31.3	nt	nt
CN(C)c1ncnc2c1NC1=C(S2)C(=NCCCC(=O)O)CC(C)(C)C1	6.2	-7.6	12.6	-17.1	4.5%

Further results:
SMILES	Arbovirus inh	RecA intein inh	Mtb betalactam	YopH inh	Mtb growth	others
CCOC(=O)c1sc(=NC(=O)COc2ccccc2)n(C)c1C	14.6	3.9	-8.2	nt	-4.2%
CCOc1cc(/C=C/C(=O)N(CC)CC(=O)NCc2cccs2)cc(Cl)c1OC	nt	-1.6	-2.6	nt	nt
CN1C(=O)C(O)(CC(=O)c2ccc3c(c2)OCO3)c2ccccc21 (centres undefined)	2.1	-1.7	1.4	0.4	-6.9%
Cc1cc(C)cc(NC(=O)Nc2ccc3ccccc3n2)c1	nt	-1.9	-6.5	nt	1.8%
CCOc1ccc(S(=O)(=O)N2CCN(Cc3ccccc3)CC2)cc1	nt	-1.1	-6.1	nt	nt
CCCCOc1ccccc1C1NC(=O)NC(C)=C1C(=O)OCc1ccco1 (centres undefined)	1.5	-2.0	2.5	-25.9	-4.3%
COc1cc(OC)c(NC(C)C(=O)N2CCCC2)cc1Cl (centres undefined)	1.6	-4.3	-8.1	nt	-3.8%
CC(C)c1nc(N2CCOCC2)c(C#N)c2c1CCCC2	-8.0	3.3	9.5	-36.5	-1.7%
CCc1cc(C(c2ccccc2OC)N2CCOCC2)c(NC(=O)c2ccccc2)s1 (centres undefined)	9.9	5.2	24.6	-11.7	-2.4%
CSc1ccccc1C(=O)NCc1ccc(F)cc1	-2.7	-1.0	5.1	nt	6.8%
CCOC(=O)c1ccc(NC(=O)CC2NCCNC2=O)cc1 (centres undefined)	-4.6	1.3	-1.3	-0.1	-14.9%
O=C(Nc1ccccc1)N1CCC(C(=O)N2CCN(c3ccccc3F)CC2)CC1	16.5	1.3	-2.7	nt	3.0%
CC/C(=N\NC(=O)c1ccoc1C)c1ccc(C)o1	-14.5	6.8	4.4	-21.9	2.7%
O=C(CN1C(=O)/C(=C/c2cccc(Cl)c2)SC1=S)NC1C=CS(=O)(=O)C1 (centres undefined)	nt	0.5	-3.4	nt	nt
Cc1ccc(-n2c(=S)sc3c(=O)n(-c4ccccc4F)c(SCC(=O)O)nc32)cc1C	nt	-23.7	-5.5	nt	nt
COC(=O)c1ccccc1NC(=O)CN1CCN(C23CC4CC(CC(C4)C2)C3)CC1	-17.8	0.8	7.7	-3.2	1.6%
COCCCNC(=O)c1nc2c(nnn2Cc2cc(C)ccc2C)c(=O)[nH]1	7.8	3.4	6.0	-12.7	-9.2%
CCOC(=O)N1CCC2(CC1)NCCc1c2[nH]c2ccccc12	nt	-1.6	5.3	nt	6.4%
O=C(CNCCC1=CCCCC1)Nc1ccc(N2CCCCCC2)cc1	-30.0	-3.0	9.1	-1.8	-14.3%
COc1ccccc1NC(=O)c1ccccc1NC(=O)c1cccs1	nt	1.7	-0.3	nt	nt
CC(Nc1nc(N2CCCCC2)nc2ccccc12)c1ccccc1 (centres undefined)	-28.1	0.7	99.2	-19.3	26.0%
Cn1cc(C(=O)N/N=C/C2=C(N3CCOCC3)C(=C\c3ccccc3)/CC2)ccc1=O	3.8	-0.4	-0.3	-25.8	-1.9%
CCn1c(COc2cccc(C)c2C)nnc1SCC(=O)Nc1cc(C)on1	-2.3	nt	5.4	nt	8.0%
CN(Cc1ccc(F)cc1)C(=O)CNC(=O)C1CCCCC1	nt	0.6	-4.4	nt	nt
Cc1cc(C)cc(NC(=O)C2CCN(S(C)(=O)=O)CC2)c1	nt	1.0	-7.2	nt	nt

Grouped by structure: the entries above containing an aryl methoxy group.
SMILES	Arbovirus inh	RecA intein inh	Mtb betalactam	YopH inh	Mtb growth	others
COc1ccc(CCNC(=O)c2c(C)nc3ccccn23)cc1	20.6	1.9	37.7	nt	?
COc1ccc(-n2nc3c(c2NC(=O)C(C)Oc2ccccc2)CS(=O)C3)cc1 (centres undefined)	nt	2.7	3.8	nt	nt
COc1cccc(CC(=O)Nc2cc(C(F)(F)F)ccc2N2CCCC2)c1	nt	0.9	?	nt	nt
COc1ccccc1CNC(=O)C1CCCN(S(=O)(=O)c2cccc3nonc23)C1 (centres undefined)	nt	0.4	-2.4	nt	nt
COc1ccc(C)cc1NC(=O)C1CCCN1C(=O)OCc1ccccc1 (centres undefined)	-8.8	1.9	4.0	-16.0	-4.8%
COc1ccc(C(=O)O/N=C2\CCCc3nonc32)cc1	1.2	-0.9	3.5	-18.8	4.5%
CCOc1cc(/C=C/C(=O)N(CC)CC(=O)NCc2cccs2)cc(Cl)c1OC	nt	-1.6	-2.6	nt	nt
COc1cc(OC)c(NC(C)C(=O)N2CCCC2)cc1Cl (centres undefined)	1.6	-4.3	-8.1	nt	-3.8%
CCc1cc(C(c2ccccc2OC)N2CCOCC2)c(NC(=O)c2ccccc2)s1 (centres undefined)	9.9	5.2	24.6	-11.7	-2.4%
COc1ccccc1NC(=O)c1ccccc1NC(=O)c1cccs1	nt	1.7	-0.3	nt	nt

A portion of the library; the hit share may differ from the screen's.
